ALR inh: human ALR oxidase inhibition via reduced H2O2; purified ALR, DTT oxidation, H2O2 HRP-luminol luminescence; inhibition, % (no concentration beside the values); 3.8% of 290,000 active; P55789;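 active = mean and each replicate at 75% or more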;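 also: stock transfer was 7.5 nL into about 7.5 µL; 0% = neutral wells and 100% = wells with inactivated enzyme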
Target sequence (P55789 whole entry, looked up): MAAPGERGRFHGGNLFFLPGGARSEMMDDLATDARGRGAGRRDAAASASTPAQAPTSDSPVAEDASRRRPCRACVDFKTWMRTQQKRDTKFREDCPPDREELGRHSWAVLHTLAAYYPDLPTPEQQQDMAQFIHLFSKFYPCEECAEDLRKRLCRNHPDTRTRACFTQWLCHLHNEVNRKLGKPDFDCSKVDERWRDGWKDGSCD
FGF22 binding: shifts melting point of recombinant human FGF22; Q9HCT0; recombinant FGF22 thermal shift, SYPRO orange fluorescence; percent of sucrose octasulfate shift, DMSO zero; calls only at 9.99 µM; 1.5% of 340,000 active; AID 651658;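 active = melting point raised past a set limit in the mean and every replicate; three in four hits are not shown here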
Target sequence (Q9HCT0 whole entry, looked up): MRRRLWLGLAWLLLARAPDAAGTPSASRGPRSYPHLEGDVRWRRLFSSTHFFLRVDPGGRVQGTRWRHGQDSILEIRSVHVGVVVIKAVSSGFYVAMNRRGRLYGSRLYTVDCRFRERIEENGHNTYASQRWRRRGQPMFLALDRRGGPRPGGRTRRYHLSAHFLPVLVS
Beta2AR agonist: activates human beta-2 adrenergic receptor causing internalization; P07550; Am2.2-beta2AR cells, FAP receptor internalization, flow cytometry; reference of the scale not given here; response, % (test concentration not listed); 0.43% of 340,000 active; AID 504454;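 active = response above a set limit, near 3 SD of response in nonfluorescent compounds, cut at about 42% in these data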;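 also: stock transfer was 100 nL into about 11 µL; a reference agonist was the positive control; negative values mostly stem from fluorescent compounds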
rRNA inh HTS: inhibits bacterial ribosomal RNA function over humanized ribosomes; GFP signal change (wild-type ribosome), % (concentration not given with the values); AID 720706; 1.6% of 350,000 active; E. coli WT GFP vs humanized-ribosome RFP mutants, fluorescence, 24 h; active compounds read low; DMSO median 0, no signal -100;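 active = significant combined selectivity score with lowered wild-type GFP, culture density cut under 30%, mutant RFP and density less affected; inactive = any of these conditions unmet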; also: one replicate is shown; some compounds called inactive have numbers as strong as hits
UCH37 inh: inhibitors of human deubiquitinating enzyme UCH37. inhibition, % (concentration not given with the values). purified proteasome/UCH37, Ub-AMC cleavage fluorescence. Q9Y5K5. 0.33% of 330,000 active;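 active = mean of two replicates above 20%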;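 also: 0% = compound-free wells with enzyme and 100% = wells lacking proteasome; stock transfer was 100 nL into about 20 µL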
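assay system = human UCH37 enzyme supplied as purified proteasome complex | amount = proteasome at 0.15 nM in the dispensed enzyme solution | schedule = 30 min compound-proteasome preincubation then 25 min substrate reaction, room temperature | measured by = fluorescence, ex 355 nm, em 460 nm | benchmarks = no-proteasome wells (full inhibition) and compound-free wells (no inhibition)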
Ecoli growth: inhibitors of Escherichia coli growth. OD600, 23 h; active compounds read low. 0.21% of 330,000 active. OD600 absorbance (no concentration beside the values);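 active = OD600 absorbance below the run mean of sample wells minus 3.6 SD, in any replicate, cut at about 0.56 in these data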;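 also: stock transfer was 300 nL into about 60 µL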
HNF4A DNA FP: change in binding of human HNF4 alpha to DNA. P41235. HNF4a-FITC DNA binding, fluorescence polarization, 1 h. activity change, % at 10 µM. 0.3% of 360,000 active; in the data active = activity change above about 30%, passing the limit was not always enough;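 also: controls were the assay level and a saturating level of protein; the project sought stronger binding though the title names inhibitors; some compounds called inactive have numbers as strong as hits; positive values seem to mean higher polarization but the record does not say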
Target sequence (P41235 whole entry, looked up): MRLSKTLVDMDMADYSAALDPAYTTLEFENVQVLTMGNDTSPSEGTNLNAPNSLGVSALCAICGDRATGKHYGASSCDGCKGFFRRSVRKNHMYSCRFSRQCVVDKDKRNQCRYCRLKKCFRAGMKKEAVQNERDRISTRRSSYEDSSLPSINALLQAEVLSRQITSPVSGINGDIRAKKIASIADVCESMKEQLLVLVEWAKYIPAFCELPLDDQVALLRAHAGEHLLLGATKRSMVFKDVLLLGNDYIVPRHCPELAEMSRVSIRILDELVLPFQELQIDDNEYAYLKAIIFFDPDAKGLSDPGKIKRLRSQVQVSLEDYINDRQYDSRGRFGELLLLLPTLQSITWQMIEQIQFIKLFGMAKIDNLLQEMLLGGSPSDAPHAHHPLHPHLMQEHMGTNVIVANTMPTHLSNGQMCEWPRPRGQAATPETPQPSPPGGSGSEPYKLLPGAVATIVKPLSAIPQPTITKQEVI
rRNA inh HTS OD600: further read-out of rRNA inh HTS, marked with its call; OD600 change, %; measured here: OD600 growth;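 optical density of the mix in the first replicate; 0 = DMSO median and -100 = no signal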
rRNA inh HTS RFP: second read-out of rRNA inh HTS, no call of its own (marks repeat the call); RFP signal change, %; measured here: RFP humanized mutant strains;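 first replicate; 0 = DMSO median and -100 = no signal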
* = called active by the depositor; i = inactive; · = no result given.

#	structure	Beta2AR agonist	Ecoli growth	rRNA inh HTS RFP	UCH37 inh	rRNA inh HTS	ALR inh	rRNA inh HTS OD600	HNF4A DNA FP	FGF22 binding
1	O=C1/C(=N\S(=O)(=O)c2cccs2)C([n+]2ccc(CCCc3ccccc3)cc2)=C([O-])c2ccccc21	1	0.66	3.1	7.1	7	-91	5	1.6	i
2	O=C(NC(=S)Nc1ccc2c(c1)OCCO2)c1ccc(F)cc1Cl	-3	0.69	0.9	0.4	11	1	13	-1.4	i
3	O=C(NCCSCc1ccccc1)c1ccc(F)cc1	7	0.69	·	0.2	·	-10	·	4.2	·
4	CCOC(=O)/C(C#N)=C/Nc1cc(C(C)(C)C)sc1C(C)=O	-4	0.71	-1.7	3.1	1	-7	-6	-0.7	i
5	C=CC[C@@H](CC(=O)N(CCO)Cc1ccccc1)C(=O)N[C@H](COC(=O)[C@@H](CC=C)Cc1ccc(F)cc1)C(C)(C)C	-2	·	1.3	1.7	0	-6	-15	-1.4	i
6	CNC(=O)C[C@H]1C(=O)N(c2ccccc2)C[C@@H]1Cc1ccccc1	·	·	2.8	·	19	·	5	-3.0	i
7	CC(O/N=C/c1ccc(OC(F)F)cc1)C(=O)Nc1cccc(S(=O)(=O)N2CCOCC2)c1 (configuration not stated)	1	·	·	·	·	6	·	-2.1	·
8	NS(=O)(=O)c1ccc(NC(=O)c2cccc3ccccc23)cc1	-7	0.68	-0.7	-0.9	-1	-6	-4	-1.6	i
9	CC1(Oc2ccc(Cl)cc2)CCN(Cc2ccc(-c3ccccn3)cc2)C1 (configuration not stated)	·	·	2.3	·	-23	·	-58	0.4	i
10	COc1ccc(N2CCN(C(=O)COC(=O)c3ccc(CSC)o3)CC2)cc1	-3	0.7	13	-1.7	-1	·	-3	-0.5	i
11	O=C(O)c1cc(NCc2cccs2)ccc1N1CCOCC1	8	0.7	·	-14	·	98*	·	4.1	·
12	O=C(Nc1ccc2c(c1)OCCO2)C(c1cc2ccccc2o1)N1CCN(C/C=C/c2ccccc2)CC1 (configuration not stated)	·	·	4.5	·	1	·	4	5.7	i
13	C[C@H]1CN([C@@H](C)CO)C(=O)CCCn2nncc2CO[C@H]1CN(C)S(=O)(=O)c1cccs1	·	·	-1.3	·	1	·	-1	-0.8	i
14	Cc1cccc(C(=O)Nc2ccc(C(=O)c3ccccc3)cc2)c1	8	0.69	·	3.3	·	-9	·	2.4	i
15	CC(C)CN(C(=O)COC(=O)c1ccc([N+](=O)[O-])s1)c1c(N)n(Cc2ccccc2)c(=O)[nH]c1=O	-6	0.64	-1.3	15	7	-55	9	0.0	i
16	COc1ccc(CN2CCC(C(=O)Nc3ccc(Oc4cccnc4)cc3)CC2)c(C)c1C	6	0.67	-1.8	2.5	6	-1	10	-1.4	i
17	CC(=O)N1c2ccc(S(=O)(=O)N3CCCC(C(=O)Nc4ccc(C)cc4)C3)cc2CC1C (configuration not stated)	·	·	1.0	·	-9	·	2	3.5	i
18	Cc1cc(=O)nc2c3ccccc3n(CC(=O)NCCCN3CCOCC3)n12	-3	0.7	·	1.1	·	0	·	0.2	·
19	CN(C)C(=O)CSc1nnc(CCN)o1	4	0.69	·	5.6	·	0	·	-0.3	·
20	CCN(CC(=O)NCC(=O)Nc1cccc(C)c1C)Cc1ccccc1	0	0.66	6.6	-1.2	6	-1	3	-1.2	i

Compounds 1 through 14 of the list above:
#	structure	Beta2AR agonist	Ecoli growth	rRNA inh HTS RFP	UCH37 inh	rRNA inh HTS	ALR inh	rRNA inh HTS OD600	HNF4A DNA FP	FGF22 binding
1	O=C1/C(=N\S(=O)(=O)c2cccs2)C([n+]2ccc(CCCc3ccccc3)cc2)=C([O-])c2ccccc21	1	0.66	3.1	7.1	7	-91	5	1.6	i
2	O=C(NC(=S)Nc1ccc2c(c1)OCCO2)c1ccc(F)cc1Cl	-3	0.69	0.9	0.4	11	1	13	-1.4	i
3	O=C(NCCSCc1ccccc1)c1ccc(F)cc1	7	0.69	·	0.2	·	-10	·	4.2	·
4	CCOC(=O)/C(C#N)=C/Nc1cc(C(C)(C)C)sc1C(C)=O	-4	0.71	-1.7	3.1	1	-7	-6	-0.7	i
5	C=CC[C@@H](CC(=O)N(CCO)Cc1ccccc1)C(=O)N[C@H](COC(=O)[C@@H](CC=C)Cc1ccc(F)cc1)C(C)(C)C	-2	·	1.3	1.7	0	-6	-15	-1.4	i
6	CNC(=O)C[C@H]1C(=O)N(c2ccccc2)C[C@@H]1Cc1ccccc1	·	·	2.8	·	19	·	5	-3.0	i
7	CC(O/N=C/c1ccc(OC(F)F)cc1)C(=O)Nc1cccc(S(=O)(=O)N2CCOCC2)c1 (configuration not stated)	1	·	·	·	·	6	·	-2.1	·
8	NS(=O)(=O)c1ccc(NC(=O)c2cccc3ccccc23)cc1	-7	0.68	-0.7	-0.9	-1	-6	-4	-1.6	i
9	CC1(Oc2ccc(Cl)cc2)CCN(Cc2ccc(-c3ccccn3)cc2)C1 (configuration not stated)	·	·	2.3	·	-23	·	-58	0.4	i
10	COc1ccc(N2CCN(C(=O)COC(=O)c3ccc(CSC)o3)CC2)cc1	-3	0.7	13	-1.7	-1	·	-3	-0.5	i
11	O=C(O)c1cc(NCc2cccs2)ccc1N1CCOCC1	8	0.7	·	-14	·	98*	·	4.1	·
12	O=C(Nc1ccc2c(c1)OCCO2)C(c1cc2ccccc2o1)N1CCN(C/C=C/c2ccccc2)CC1 (configuration not stated)	·	·	4.5	·	1	·	4	5.7	i
13	C[C@H]1CN([C@@H](C)CO)C(=O)CCCn2nncc2CO[C@H]1CN(C)S(=O)(=O)c1cccs1	·	·	-1.3	·	1	·	-1	-0.8	i
14	Cc1cccc(C(=O)Nc2ccc(C(=O)c3ccccc3)cc2)c1	8	0.69	·	3.3	·	-9	·	2.4	i

Further entries
#	structure	Beta2AR agonist	Ecoli growth	rRNA inh HTS RFP	UCH37 inh	rRNA inh HTS	ALR inh	rRNA inh HTS OD600	HNF4A DNA FP	FGF22 binding
21	COc1cc(CC(=O)OCC(=O)Nc2ccc([N+](=O)[O-])cc2)cc(OC)c1OC	-15	0.7	-0.9	2.0	-7	-3	-6	0.5	i
22	CC(=O)Nc1cc(NC(C)=O)cc(C(=O)NCC2(N3CCOCC3)CCCCC2)c1	13	0.68	-6.3	1.6	-5	·	4	-5.6	i
23	Cc1cccc(C)c1NC(=O)c1csc(COCCO)n1	·	·	-0.6	·	11	·	15	-2.8	i
24	COc1ccc([N+](=O)[O-])cc1NC(=O)C(C)OC(=O)CN1C(=O)C2CC=CCC2C1=O (configuration not stated)	8	0.61	-2.7	2.6	5	-6	2	2.2	·
25	Cc1ccccc1NC(=O)CSc1nc(N2CCCCC2)nc(N2CCCCC2)n1	-12	0.69	·	3.4	·	2	·	4.0	·
26	CC(=O)Cn1ncc(N2CCOCC2)c(Br)c1=O	18	0.67	-0.2	3.5	1	-4	4	0.2	i
27	Cc1ccc(CN(c2ccc(C(=O)NCc3cccnc3)cc2)S(C)(=O)=O)cc1	14	0.7	·	2.4	·	-8	·	-0.7	·
28	CCCCOc1ccc(C(=O)NN2C(=O)NC3(CCCCC3)C2=O)cc1OC	0	0.69	0.2	2.0	-1	-4	-2	0.5	i
29	O=C(NCCCN1CCCC1)c1ccc(CSCc2cccc(Cl)c2)o1	-5	0.69	·	1.3	·	-14	·	0.2	i
30	O=C(COC(=O)/C=C/c1ccc(Cl)cc1)NC(=O)NCc1ccccc1	1	0.69	-0.6	4.6	-3	·	6	-1.9	i
31	CC(C)c1nc(C(N)=O)c2[nH]c(=O)n(-c3ccc(F)cc3)c2n1	0	0.71	-0.1	-46	12	·	8	0.8	i
32	O=C(C/C=N\O)Nc1ccc(Oc2ccccc2)cc1	-7	·	-0.8	·	-2	-19	-4	3.9	·
33	O=C(CN1C(=O)NC2(CCCC2)C1=O)Nc1cc(S(=O)(=O)N2CCOCC2)ccc1OCC(F)(F)F	-2	0.68	-1.1	3.4	-1	5	-1	2.3	i
34	CS(=O)(=O)N(CC(=O)NCc1ccncc1)Cc1ccc(Cl)cc1	-10	0.7	·	·	·	·	·	-0.6	·
35	COCCOc1ccc(C(F)(F)F)cc1NC(=O)c1ccc(C)cc1	3	0.7	·	4.0	·	-2	·	4.0	·
36	CCc1nnc(NC(=O)CCS(=O)(=O)c2ccccc2)s1	-6	0.7	0.9	7.0	8	-1	3	3.6	i
37	COC(=O)c1cc(S(=O)(=O)N2CCCCC2)ccc1N1CCOCC1	-1	0.68	0.3	2.6	2	1	9	-0.3	i
38	O=[N+]([O-])c1ccccc1N/N=C1\CC2CC=CC12 (configuration not stated)	-8	·	-2.1*	·	-29*	-17	12*	-3.4	i
39	CCOC(=O)N1CCN(CC(=O)Nc2nccs2)CC1	·	·	-0.7	·	8	·	15	-0.6	i
40	CCOC(=O)c1sc(NC(=O)c2ccccc2OCC)nc1C	-14	0.72	-18	-0.6	3	·	18	3.9	i

Look-ups from the results shown:
cpd 21 @ HNF4A DNA FP = 0.5
cpd 26 @ rRNA inh HTS OD600 = 4

Other compounds:
#	structure	Beta2AR agonist	Ecoli growth	rRNA inh HTS RFP	UCH37 inh	rRNA inh HTS	ALR inh	rRNA inh HTS OD600	HNF4A DNA FP	FGF22 binding
41	CCCCC(=O)c1ccc(OC(=O)c2ccc([N+](=O)[O-])cc2)cc1	-3	0.71	·	0.6	·	·	·	-0.8	i
42	CC(C)(C#N)Cc1cc(CC(C)(C)C#N)cc(C(C)(C)C)c1	4	0.72	0.8	-4.1	-1	2	4	-0.4	i
43	COc1ccc(NC(=O)c2sc(Cl)nc2-c2ccccc2)cc1	-25	0.7	0.3	2.1	6	-14	2	-0.5	i
44	CCCc1cc(=O)[nH]c(SCC(=O)N(CC)Cc2ccccc2)n1	0	0.69	·	-0.3	·	·	·	0.2	·
45	O=C(Nc1ccc(OC(F)(F)F)cc1)c1ccc2nc[nH]c2c1	4	0.65	-1.8	2.0	-22	-19	-26	1.9	·
46	CNC(=S)N/N=C/c1cn(Cc2c(F)cccc2Cl)c2ccccc12	10	·	·	·	·	-2	·	-0.4	·
47	Cc1ccc(S(=O)(=O)Nc2nc3ccccc3nc2N2CCN(c3ccccc3F)CC2)cc1	5	0.73	·	2.5	·	-6	·	3.7	·
48	COc1ccccc1N/C=C1/Sc2cc(Cl)ccc2NC1=O	·	0.77	1.1	1.0	1	·	10	·	i
49	CCCCOc1ccc(CN2CCCCC2)cc1	-11	0.66	0.6	5.3	21	0	5	-1.4	i
50	O=C1N=C(N2CCN(c3ccccc3)CC2)S/C1=C/c1ccco1	8	0.65	2.7*	11	-38*	20	2.9*	3.0	i
51	CCOC(=O)N1CCC(Nc2c(-c3ccc(C)c(C)c3)c(=O)c2=O)CC1	15	0.73	·	10	·	16	·	-1.4	·
52	Cc1cccc(S(=O)(=O)N2CN(Cc3ccco3)c3nc4ccccc4nc32)c1	-6	0.7	·	-1.9	·	71	·	14	·
53	COc1ccc(NC(=O)N2CCCCC2c2cccnc2)cc1 (configuration not stated)	-3	0.66	-3.1	-1.5	-5	-4	2	0.6	i
54	CC[C@@H](C)[C@H](NC(=O)Cc1c(C)c2cc3c(C)c(C)oc3c(C)c2oc1=O)C(=O)O	2	0.65	-1.3	-32	-19	5	-15	2.8	i
55	N#Cc1c(NC(=O)CCCC(=O)O)sc2c1CCCCC2	-6	0.7	·	5.2	·	31	·	-2.1	·
56	CC(C)N1C(=O)CCC1C(=O)N1CCCc2ccccc21 (configuration not stated)	-4	0.69	·	7.9	·	-4	·	-0.3	·
57	COC(=O)Cc1ccc(N(Cc2ccccc2F)S(=O)(=O)c2ccc(C)cc2)cc1	6	0.75	1.8	4.2	-2	-4	-2	3.2	i

This is a subset, so the mix of outcomes need not match the whole.
